Screening results: PubChem, several laboratories
YopH PTP inh – YopH tyrosine phosphatase inhibitors, primary screen, biochemical, fluorescence Ex485/Em525; YopH tyrosine phosphatase [Yersinia enterocolitica]; inhibition, %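 (about 10 µM by stock and volumes)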; 140,000 tested, 0.16% active; AID 898, 2007;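 active = inhibition of 50% or more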;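 also: controls were vehicle for no effect and minimum signal wells for full effect; inactives centre near -20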
Mtb betalactam – beta-lactam sensitization of Mtb H37Rv, H37Rv. inhibition, % at 25 µM. AID 434955, 2010. M. tuberculosis H37Rv growth with meropenem, percent inhibition; hits of this screen are not shown here. 330,000 tested, 0.27% active;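 active = about 74% or more and at least 40 points above the plate without the antibiotic, then above 30% in a dose series; inconclusive = first-round hits that could not be retested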;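 also: growth measured after seven days incubation then overnight dye step; 0% = bacteria only wells and 100% = bacteria with antibiotic; twin plates without the antibiotic show which effects depend on it; some results filed as inactive read as strong as hits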
Mtb growth – M. tuberculosis H37Rv growth inhibitors, H37Rv strain (AID 1626); M. tuberculosis H37Rv growth inhibition; higher % means a stronger effect; inhibition, % at 10 µM; hits with a dose series show IC50 in µM; 220,000 tested, 0.95% active;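 active = confirmed in a dose series; inconclusive = inhibition above 80% but not taken into the dose series; inactive = below 80% or under 30% at every dose of the series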;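 also: bacteria incubated seven days before Alamar blue readout; 0% = bacteria only wells and 100% = bacteria with antibiotic wells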
Arbovirus anti – antivirals against arbovirus infection, primary screen, cell-based, full library, 10K replicate subset | arbovirus infection cell-based antiviral screen | inhibition, % at 10 µM | 200,000 tested, 0.37% active | AID 1251, 2008;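 active = inhibition from about 30%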;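 also: bluetongue infection of BSR cells; cell survival read as ATP light after 72 h; 0% = infected wells without compound and 100% = uninfected wells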
RecA splice inh – Mtb RecA intein splicing inhibitors, primary screen, biochemical, fluorescence, HTS; inhibition, %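 (about 9 µM by stock and volumes)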; 290,000 tested, 0.75% active; cell-free RecA intein splicing; Protein RecA (Mycobacterium tuberculosis (strain ATCC 25618 / H37Rv)), P9WHJ3; in the data active = inhibition above about 30%; inconclusive = no clear call, values can overlap the other calls;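 also: 0% = vehicle wells and 100% = reference inhibitor control wells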
Target sequence (P9WHJ3 whole entry, looked up, canonical isoform): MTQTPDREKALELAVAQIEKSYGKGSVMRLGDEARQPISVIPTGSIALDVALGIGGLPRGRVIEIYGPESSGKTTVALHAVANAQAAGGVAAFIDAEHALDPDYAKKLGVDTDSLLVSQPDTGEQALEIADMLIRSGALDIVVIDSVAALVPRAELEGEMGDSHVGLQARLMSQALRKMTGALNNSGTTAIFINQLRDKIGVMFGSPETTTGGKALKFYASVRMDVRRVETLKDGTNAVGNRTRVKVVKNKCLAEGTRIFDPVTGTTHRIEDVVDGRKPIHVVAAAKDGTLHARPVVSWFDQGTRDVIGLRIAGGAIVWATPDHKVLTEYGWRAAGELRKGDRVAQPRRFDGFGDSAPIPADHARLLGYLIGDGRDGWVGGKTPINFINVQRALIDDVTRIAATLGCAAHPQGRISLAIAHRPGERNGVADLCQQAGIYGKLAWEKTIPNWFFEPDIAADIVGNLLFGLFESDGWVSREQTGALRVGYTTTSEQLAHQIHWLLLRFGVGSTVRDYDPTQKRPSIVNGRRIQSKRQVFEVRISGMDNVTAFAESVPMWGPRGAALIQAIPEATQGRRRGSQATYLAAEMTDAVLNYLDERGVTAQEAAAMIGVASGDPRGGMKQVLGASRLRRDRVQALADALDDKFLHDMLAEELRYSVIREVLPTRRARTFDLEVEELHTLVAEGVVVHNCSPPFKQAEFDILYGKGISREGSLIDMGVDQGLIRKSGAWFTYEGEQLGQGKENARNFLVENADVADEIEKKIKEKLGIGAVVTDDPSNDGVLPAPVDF
Arbovirus anti repeat – recorded beside Arbovirus anti, whose call it bears; inhibition, %; measured here: 10K subset replicate screen; many hits read low in the repeat;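 first of two repeat runs on a subset; 0% = infected and 100% = uninfected wells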
Starred values were filed as active, the others as inactive; ? = inconclusive; . = no result given. An excerpt, so the mix of outcomes need not match the whole.

SMILES	YopH PTP inh	Mtb betalactam	Mtb growth	Arbovirus anti	RecA splice inh	others
Cc1ccc(C23CC4CC(CC(C(=O)OCC(=O)NC5CCS(=O)(=O)C5)(C4)C2)C3)cc1 (centres undefined)	-22	1	13%	13	1.0
CCCn1cc(CN2CCC(n3nccc3NC(=O)c3ccc4c(c3)OCO4)CC2)c(C)n1	.	2	.	.	1.6
CC(C)n1nnc2c(=O)oc3ccccc3c21	-4	73	11%	11	0.2
O=C(C1=C(O)C(=O)N(CCc2ccccc2)C1c1cccs1)c1ccco1 (centres undefined)	.	-1	-6%	-10	1.8
Cc1c(C)c(C)c(S(=O)(=O)N2CCC3(CC2)OCCO3)c(C)c1C	.	-2	.	.	2.9
Cn1cc(SCC(=O)Nc2nccs2)c2ccccc21	-34	5	4%	0	1.1
CCn1c(SCC(=O)c2ccc(NS(=O)(=O)c3ccccc3)cc2)nnc1-c1cccs1	1	2	-10%	10	9.2
Cc1ccnc(SCC(=O)c2ccc(Br)s2)n1	.	5	5%	-1	2.5
CCCN1CCC(NC23CC4CC(CC(C4)C2)C3)CC1	.	-5	.	.	0.3
CCCCCCc1cc2cc(C(=O)Nc3cccc(OC)c3)c(=O)oc2cc1O	2	9	1%	28	-23
CCOC(=O)c1sc(NC(=O)c2cc(-c3ccc(C)cc3)nc3ccccc23)c(C#N)c1C	-31	10	1%	-10	0.5
C/C(=N\NC(=S)Nc1ccccc1C)C1Cc2ccccc2C(=O)O1 (centres undefined)	.	2	-6%	.	-1.1
COC(=O)c1cccc(NC(=S)NCCC2=CCCCC2)c1	-20	79	51%	8	2.0
Cc1ccc2oc(=O)c3cnn(CC(=O)N4CCN(c5ccccn5)CC4)c3c2c1	4	-1	3%	3	-0.3	Arbovirus anti repeat=-3
COC(=O)[C@@H]1C[C@@]2(O)[C@H](O)[C@H](O)[C@H](O)C[C@H]2N1Cc1ccc(C(F)(F)F)cc1	.	5	-14%	.	-0.4
CN(C)/C=C/C=C1C(=O)CCCC1=O	16	-2	-10%	-1	-0.1
CCOc1ccc(/C(O)=C2/C(=O)C(=O)N(Cc3cccnc3)C2c2ccc(N(C)C)cc2)c(C)c1 (centres undefined)	-34	-6	-18%	-4	-0.3
CC(C)CC(=O)N1CCN(Cc2ccccc2Cl)CC1	.	-1	.	.	-0.4
COC(=O)c1c(-c2ccccc2)noc1-c1ccccc1	.	-7	.	.	2.1
CC(=O)N1CCCc2cc(S(=O)(=O)N(C)CCC#N)ccc21	-44	-7	-2%	6	4.5
CN(CC(=O)NNC(=O)Cc1ccccc1F)S(=O)(=O)c1ccc(Cl)cc1	.	-16	.	.	-1.7
CCN(CC)CCNC(=O)c1ccc(NC(=O)c2c(C)nn(-c3ccc(F)cc3)c2Cl)cc1	.	4	.	.	-0.6
O=C(CSc1nncn1-c1cccnc1)Nc1cccc([N+](=O)[O-])c1	.	-4	.	.	-2.5
COc1ccc2nc(/N=C\N(C)C)sc2c1	-24	-5	6%	6	-0.4
O=C1/C(=C\c2ccc(Cl)c(Cl)c2)N2CCC1CC2	.	34	15%	.	3.5

New compounds follow.
SMILES	YopH PTP inh	Mtb betalactam	Mtb growth	Arbovirus anti	RecA splice inh	others
CCOc1ccc(C(=O)C(CN2CCOCC2)c2ccccc2)cc1 (centres undefined)	-14	100	?	-30	9.7
COc1cccc(CC2(CO)CCCN(Cc3ccc(-c4ccco4)cc3)C2)c1 (centres undefined)	.	11	5%	-13	6.9
COC(=O)C(C(=O)OC)C(C[N+](=O)[O-])c1ccc(OC)cc1 (centres undefined)	-41	-1	-10%	0	-0.6
O=C(NCC(c1cccnc1)N1CCOCC1)Oc1ccccc1 (centres undefined)	4	-4	-2%	4	2.9
CCCCNc1ccc(S(N)(=O)=O)cc1[N+](=O)[O-]	-11	0	-3%	6	-2.3
COc1cc(C2N=C(c3ccccc3)NO2)cc(Br)c1O (centres undefined)	0	6	3%	35*	-2.1
NC(=O)CSc1c[nH]c2ccccc12	8	6	-7%	-8	1.0
Cc1[nH]c2ccccc2c1NC(=O)CN1CCN(C(=O)c2ccco2)CC1	.	-4	11%	.	-4.8
CCCCCn1c(=O)c(C(=O)Nc2ccccc2Cl)c(O)c2ccccc21	.	-4	.	.	-1.4
CCS(=O)(=O)c1nc(S(=O)(=O)c2ccc(C)cc2)c(NCCCN2CCCC2=O)s1	.	0	.	.	0.7
CSCC[C@@H](C(=O)Nc1ccc2c(c1)OCCO2)N1Cc2ccccc2C1=O	-40	-9	0%	1	-1.0	Arbovirus anti repeat=0
CCn1ncc(CN2CCN(Cc3cccc(OC)c3)C(CCO)C2)c1C (centres undefined)	.	0	3%	-4	-0.4
COCCCNC(=O)CN(CCc1ccccc1)S(=O)(=O)c1ccc(C)cc1	.	-1	4%	-1	-0.8
COc1ccc(-c2cc(CNC(C)=O)on2)cc1	-25	-3	3%	-3	1.3
O=C(Cn1cnc2sc3c(c2c1=O)CCCC3)NCC(=O)Nc1ccc(F)cc1F	.	100	.	.	1.6
COC(=O)/C(=C/c1c[nH]c2ccccc12)[N+](=O)[O-]	-16	7	-5%	6	5.4
CN1CCC(NC(=O)c2cccc(Oc3ccccc3)c2)CC1	.	-8	.	.	1.9
O=C1C=C(c2ccc(F)nc2)CCC1	.	-5	-7%	.	0.0
O=C(O)c1cc(N2C(=O)C3CC=CCC3C2=O)ccc1NCc1cccnc1 (centres undefined)	-25	3	.	14	1.1
Cc1cc(C)cc(N2C(=O)NC(=O)/C(=C/c3cccn3-c3ccc(Cl)cc3)C2=O)c1	-8	3	-1%	-36	-2.8
Cc1ccc(SCC(=O)c2c(C)nc3cc(C)ccn23)cc1	.	7	11%	-6	4.5
Cc1ccc(CSc2nnc(-c3cccc(S(=O)(=O)N4CCOCC4)c3)n2CC(C)C)cc1	-13	8	4%	4	4.8
CCCn1c(C(O)c2cc(OC)c(OC)c(OC)c2)nc2ccccc21 (centres undefined)	.	-12	.	.	-3.2
CCOc1ccc(NC(=O)CCC(=O)Nc2nnc(CC)s2)cc1	.	14	.	.	-1.1
COc1ccccc1CN(C)c1nnnn1-c1ccccc1	.	11	-1%	-2	-1.7

Next part:
SMILES	YopH PTP inh	Mtb betalactam	Mtb growth	Arbovirus anti	RecA splice inh	others
O=C(Nc1cccnc1)c1ccc(COc2ccccc2Cl)o1	-5	-4	-1%	-32	2.7
COc1ccc(CN2CCN(C(=O)COc3ccc4ccccc4c3)CC2)c(OC)c1	.	6	.	.	2.0
Nc1cccc2c1C(=O)N(C(=O)c1ccco1)C2=O	.	3	-6%	.	-222
CCC(Sc1nccn1C)C(=O)Nc1ccc(Cl)cn1 (centres undefined)	.	-4	-4%	-1	-1.2
CCOC(=O)C(=O)/C(=C\N(C)C)c1onc(-c2c(Cl)cccc2Cl)c1C(=O)OC	-30	5	2%	4	-3.5
CCNc1nc(NCC)n2c(SCc3ccc(F)cc3)nnc2n1	-37	-7	-2%	8	1.1
O=C(NC1CCCC1)C(c1ccncc1)N(CC1CCCO1)C(=O)Cn1nnc(-c2cccs2)n1 (centres undefined)	16	4	-5%	0	-2.4
COC(=O)/C=C1/SC(=Nc2ccc(C)cc2C)NC1=O	-37	61	.	27	-0.1
O=C(NC1CCN(c2ncccn2)CC1)c1cccc(F)c1	.	7	.	.	-0.1
C=CCc1c(C)nc(N2CCSCC2)[nH]c1=O	.	-9	-6%	.	0.9
CC(=O)c1ccc(NC(=O)CSc2nnc(-c3ccco3)o2)cc1	.	3	.	.	-3.7
CCC(C)[C@H](NC(=O)N1CCC(C)CC1)C(=O)O (some centres undefined)	.	-4	-4%	.	1.4
CCC(=O)Nc1cc(C)c(NC(=O)C23CC4CC(CC(C4)C2)C3)cn1	10	-6	2%	7	1.3
O=C(CSc1nnc(SCc2ccc(Cl)cc2)s1)N/N=C/c1ccc(Cl)cc1Cl	.	88	69%	-17	-1.1
FCCCOc1ccc(-c2nccc(-c3ccccn3)n2)cc1	.	47	.	.	5.5
CC(C)(C)S(=O)(=O)/C(C#N)=C/c1sccc1C1OCCO1	.	-1	-5%	.	0.2
CCOC(=O)c1c(C)c(C(=O)NCCCN2CCCC2=O)c(C)n1CC	-57	-5	-6%	2	-0.8
CCOc1ccc(NC(=O)c2sc3nc4n(c(=O)c3c2C)CCC4)cc1	.	-2	.	.	-3.9
O=C(Oc1cccc(-n2cnnn2)c1)c1sc2ccccc2c1Cl	-52	95	8%	4	6.5
CC(=O)c1c(C)oc2ccc(NS(=O)(=O)c3ccccc3)cc12	.	4	.	.	-0.3
Nc1nnc(SCc2ccc(Cl)cc2)s1	-19	75	67%	-7	-1.0
CC(C)Oc1ccc(S(=O)(=O)N2CCCCC2)cc1NC(=O)C1CSC2(C)CCC(=O)N12 (centres undefined)	.	-13	.	.	3.3
CCC1CCCCN1Cc1nc2c(c(=O)n(C)c(=O)n2C)n1Cc1ccccc1 (centres undefined)	-12	6	11%	1	1.2	Arbovirus anti repeat=-6
CC(C)(CO)CNC1CCCN(C2Cc3ccccc3C2)C1 (centres undefined)	.	-1	.	.	3.9
COc1ccc(C(=O)CNc2ccc(C)cc2C)cc1	.	0	-4%	.	2.0

Twelve compounds out of the list, ordered by count of non-hydrogen atoms, ascending:
SMILES	YopH PTP inh	Mtb betalactam	Mtb growth	Arbovirus anti	RecA splice inh	others
Nc1nnc(SCc2ccc(Cl)cc2)s1	-19	75	67%	-7	-1.0
Nc1cccc2c1C(=O)N(C(=O)c1ccco1)C2=O	.	3	-6%	.	-222
CCC(Sc1nccn1C)C(=O)Nc1ccc(Cl)cn1 (centres undefined)	.	-4	-4%	-1	-1.2
CC(C)(CO)CNC1CCCN(C2Cc3ccccc3C2)C1 (centres undefined)	.	-1	.	.	3.9
O=C(Nc1cccnc1)c1ccc(COc2ccccc2Cl)o1	-5	-4	-1%	-32	2.7
CCNc1nc(NCC)n2c(SCc3ccc(F)cc3)nnc2n1	-37	-7	-2%	8	1.1
CCC(=O)Nc1cc(C)c(NC(=O)C23CC4CC(CC(C4)C2)C3)cn1	10	-6	2%	7	1.3
CCOc1ccc(NC(=O)c2sc3nc4n(c(=O)c3c2C)CCC4)cc1	.	-2	.	.	-3.9
O=C(CSc1nnc(SCc2ccc(Cl)cc2)s1)N/N=C/c1ccc(Cl)cc1Cl	.	88	69%	-17	-1.1
COc1ccc(CN2CCN(C(=O)COc3ccc4ccccc4c3)CC2)c(OC)c1	.	6	.	.	2.0
CC(C)Oc1ccc(S(=O)(=O)N2CCCCC2)cc1NC(=O)C1CSC2(C)CCC(=O)N12 (centres undefined)	.	-13	.	.	3.3
O=C(NC1CCCC1)C(c1ccncc1)N(CC1CCCO1)C(=O)Cn1nnc(-c2cccs2)n1 (centres undefined)	16	4	-5%	0	-2.4

(further entries)
SMILES	YopH PTP inh	Mtb betalactam	Mtb growth	Arbovirus anti	RecA splice inh	others
COc1cccc(-c2cc(C(=O)Nc3cnn(Cc4ccc(F)cc4)c3)no2)c1	-37	-13	-8%	1	0.4
CCOC(=O)CNC(c1ccccc1)c1cc(Br)ccc1NC(=O)CCN1CCOCC1 (centres undefined)	-12	90	5%	7	16
Cc1ccc(S(=O)(=O)Oc2ccc(/C=C(/NC(=O)c3ccccc3)C(=O)O)cc2)cc1	.	-5	-2%	-2	-4.6
O=C(c1cccc(S(=O)(=O)N2CCc3ccccc32)c1)N1CCCC(C(F)(F)F)C1 (centres undefined)	.	-8	.	.	3.0
O=C(Nc1ncccc1O)c1ccc(Cl)c(S(=O)(=O)N2CCCCC2)c1	.	0	.	.	0.6
O=[N+]([O-])c1ccccc1S(=O)(=O)Oc1ccc(C(=S)N2CCOCC2)cc1	-26	-4	5%	12	-11
COCCCNC(=O)C(=O)NC1CCCCC1C (centres undefined)	.	6	-1%	-1	2.1
C#CCN1C(=O)C(O)(CC(=O)/C=C/C=C/c2ccccc2)c2ccccc21 (centres undefined)	.	-3	2%	-5	3.3
O=P1(Nn2cnnc2)C=C(c2ccccc2)OC(c2ccccc2)=C1	4	11	-3%	-4	1.6
C/C(=N\NC(=O)c1ccccc1)c1c(O)n(C2CCCCC2)c(=O)[nH]c1=O	.	?	.	.	-0.9
CC(=O)Nc1ccc(S(=O)(=O)N2CCc3c(Cl)cccc3C2)cc1	-53	-4	-6%	6	-0.4
CC(C)(C)OC(=O)NCCCC[C@@H](C(=O)NCCCCCCCCCCC(=O)N1CCN(C(=O)OC(C)(C)C)CC1)n1cc(CCO)nn1	.	-10	.	.	-0.6
CCC(=O)Nc1ccc(NC(=O)CSc2nnnn2-c2ccc3c(c2)OCCO3)cc1	.	0	3%	-6	0.0
Cc1ccccc1-c1nc(CS(=O)CC(=O)NCc2ccccn2)c(C)o1 (centres undefined)	.	7	.	.	0.7
